Screens as filed in PubChem BioAssay.
CDC25B CDK2 inh: human CDC25B-CDK2/CyclinA binding inhibition | HTRF CDC25B-CDK2/CyclinA binding, anti-His/anti-Flag; active compounds read high | P30305+P24941 | z-score (concentration not given with the values) | 94,000 tested, 0.72% active;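 also: score is relative to mean and SD of negative controls; strong numbers were not always called active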
HIV TAR-Tat: HIV-1 TAR-Tat binding disruption; HIV-1 TAR RNA, Tat peptide displacement FRET; active compounds read high; z-score (test concentration not listed); 100,000 tested, 0.6% active;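 also: score is relative to mean and SD of negative controls; some compounds called inactive have numbers as strong as hits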
An asterisk follows results filed as active; · = no result given; & = joins results of further samples.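 The calls were made as follows: active = z-score from 3 up in half or more of its runs; inactive = the rest.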 Compounds as they come; 0.9% or so of the library scored in one or more.

Compound | CDC25B CDK2 inh | HIV TAR-Tat
COc1ccc(CN2CCN(Cc3ccc4c(c3)OCO4)CC2)cc1OCc1ccccc1 | -3.1 | 0.93
Cc1cc(C)nc(/N=C2\NC(=O)CC(C(=O)O)N2CCc2c[nH]c3ccccc23)n1 (configuration not stated) | -1.7 | ·
O=C(O)CCC(=O)c1ccc(F)cc1 | -1.1 | ·
CCOc1ccc(-n2c(SCc3nc(-c4ccc(Cl)cc4)no3)nnc2-c2ccncc2)cc1 | 1.5 | 2.2
Cc1c(NC(=O)c2ccc(-c3ccccc3)cc2)cccc1-c1nc2ccccc2s1 | -3.8 | ·
O=c1c2cc3c(cc2n(Cc2cccc(Cl)c2)c(=O)n1Cc1nc(-c2ccccc2)no1)OCO3 | · | 0.84
CCC(C)NS(=O)(=O)c1ccc(CN2C(=O)c3cccnc3C2=O)cc1 (configuration not stated) | · | 1.3
CC(C)c1ccc2occ(CC(=O)Nc3nnc(C(C)C)s3)c2c1 | -1.8 | 2.3
CN1C(=O)C2CCCCN2c2ccc(C(=O)N3CCC(C(N)=O)CC3)cc21 (configuration not stated) | · | 1.1
CCOC(=O)c1c(C)[nH]c(C)c1S(=O)(=O)NCCN1CCC(C)CC1 | · | 0.56
O=C(Nc1nccs1)C1CCN(S(=O)(=O)c2cnc[nH]2)CC1 | 0.57 | -0.81
Cc1cc2oc(C(=O)Nc3nc4ccc(F)cc4s3)cc(=O)c2cc1C | -1.9 | 3.8
O=C(Nc1ccccc1)Nc1ccccc1-c1ccccc1NC(=O)Nc1ccccc1 | -1.9 | ·
CCOc1ccc2nc(SC3CC(=O)N(c4ccc(OC)cc4)C3=O)nc(C)c2c1 (configuration not stated) | -3.5 | 0.58
COC(=O)c1ccc(CNC(=O)Nc2ccc(C(=O)OC)cc2C)cc1 | -0.48 | ·
Cc1ccc2cc(CCNS(C)(=O)=O)c(=O)[nH]c2c1C | -2.5 | ·
O=C(NCC(c1ccco1)S(=O)(=O)c1cccs1)c1ccc2c(c1)OCO2 (configuration not stated) | · | 0.17
N#C/C(=C\c1ccc(-c2ccccc2)cc1)C(N)=O | -0.34 | ·
O=C(c1ccccc1Br)N1CCN(Cc2cc(=O)n3ccccc3n2)CC1 | · | 0.6
COc1ccc(C2=NOC(C(=O)N3CCN(C(=O)c4ccco4)CC3)C2)cc1OC (configuration not stated) | -1.7 | -0.64
CCOC(=O)c1[nH]c(C)c(CCC(=O)O)c1C | -3.3&-2.3 | 1.8
CCOc1ccc2c(=O)c(Oc3ccccc3Cl)coc2c1 | -2.5 | 0.13
Cc1cc(-c2c(C)sc(C)c2S(=O)(=O)N2CCN(C(=O)c3ccco3)CC2)on1 | · | -0.18
O=C(Nc1ccccc1Cl)c1[nH]nc2c1CCc1ccccc1-2 | · | 0.74

4 entries from above, with values under each structure:
Screens in order – CDC25B CDK2 inh	HIV TAR-Tat
N#C/C(=C\c1ccc(-c2ccccc2)cc1)C(N)=O
  -0.34	·
O=C(Nc1ccccc1)Nc1ccccc1-c1ccccc1NC(=O)Nc1ccccc1
  -1.9	·
CCOc1ccc2nc(SC3CC(=O)N(c4ccc(OC)cc4)C3=O)nc(C)c2c1 (configuration not stated)
  -3.5	0.58
COC(=O)c1ccc(CNC(=O)Nc2ccc(C(=O)OC)cc2C)cc1
  -0.48	·

More records follow:
Compound | CDC25B CDK2 inh | HIV TAR-Tat
COc1ccc(/C=C2\OC(=O)c3c2cc(C)[nH]c3=S)cc1 | -2.6 | 3
O=C(OC[C@H]1O[C@H](OC(=O)c2cc(O)c(O)c(OC(=O)c3cc(O)c(O)c(O)c3)c2)[C@H](OC(=O)c2cc(O)c(O)c(OC(=O)c3cc(O)c(O)c(O)c3)c2)[C@@H](OC(=O)c2cc(O)c(O)c(OC(=O)c3cc(O)c(O)c(O)c3)c2)[C@@H]1OC(=O)c1cc(O)c(O)c(OC(=O)c2cc(O)c(O)c(O)c2)c1)c1cc(O)c(O)c(OC(=O)c2cc(O)c(O)c(O)c2)c1 | · | 26*
O=C(Nc1ccc(Br)cc1)c1csnn1 | -0.64 | -0.95
CCCOc1cccc(C2Nc3ccccc3NC3=C2C(=O)CC(C)(C)C3)c1 (configuration not stated) | -0.83 | 0.29
COC(=O)c1ncn2c1C(=O)N(Cc1ccc(C)o1)C(C)(C(=O)NC1CCCCC1)C2 (configuration not stated) | -0.83 | 1.2
CN1CCN(C(=O)Nc2ccccc2)c2cccnc21 | -1.4 | 2.5
Cc1oc2ncnc(N3CCOCC3)c2c1C(=O)NCCCN1CCCC1 | · | 0.82
Cc1ccc2c(c1)C(=O)C(=O)N2CO | -0.74 | 3
CCCCC(CC)n1[nH]c(=O)c2c(C)cc(=O)[nH]c21 (configuration not stated) | -1.4 | 1.2
Cc1nc(-c2cccs2)c(CC(=O)Nc2nccs2)s1 | -2 | -0.49
COc1ccc(-c2onc(C)c2C)cc1S(=O)(=O)NCc1ccc2c(c1)OCO2 | · | 0.93
Cc1onc(-c2ccc(F)cc2)c1C(=O)O | 1.9 | 0.35
CCSc1ccc(-c2sc(-c3ccccc3)nc2C)nn1 | · | 2.2
CCSc1nc(NCCN2CCOCC2)c2c3c(sc2n1)COC(C)(CC)C3 (configuration not stated) | -0.73 | -0.16
CC1CCN(C(=O)C2CCN(S(=O)(=O)c3cccnc3)CC2)CC1 | -2.1 | -0.34
Cc1nc2sccn2c(=O)c1NC(=O)CC(C)(C)C | · | 1.3
c1ccc(-c2ccc(-c3nc(-c4ccncc4)no3)cc2)cc1 | -2 | 2.3
O=C1CC(c2nc3ccccc3n2CCOc2ccccc2)CN1c1ccc(F)cc1 (configuration not stated) | -0.66 | -0.62
COc1ccc(C(=O)CC(=O)c2cc(Cl)ccc2O)cc1OC | 0.68 | -0.76
Cc1nc(C(F)(F)F)ccc1C(=O)Oc1ccc2c(c1)OCO2 | -0.49 | ·
Cc1ccc(CNS(=O)(=O)c2cnc[nH]2)cc1 | -1.2 | 0.86
CCOC(=S)NC(C)(C)C | -1.1 | ·
CCCCc1nnc(NC(=O)CSCc2cc(=O)n3nc(C)sc3n2)s1 | · | 0.26
COc1cc2[nH]c(=O)n(CCC(=O)NC(C)C)c(=O)c2cc1OC | -0.42 | ·
Cc1cc(NS(=O)(=O)c2ccc(NC(=O)C3CCCCC3)cc2)no1 | -0.91 | ·
Cc1ccc(-c2nnc3c4ccccc4c(C)nn23)cc1S(=O)(=O)NCC1CCCO1 (configuration not stated) | -1.3 | 1.3
CCN1C(=O)C(O)(c2c(C)[nH]c3ccccc23)c2ccccc21 (configuration not stated) | -0.25 | 0.88
CCN(CC)CCCNC(=O)c1sc2nc3n(c(=O)c2c1C)CCCCC3 | · | 0.85
CCCCN1C(=O)C2ON(c3ccccc3)C(c3cccs3)C2C1=O (configuration not stated) | 1.2 | 0.47
O=S(=O)(c1ccc(Br)cc1)N1CCN(c2nc3ccccc3n3cccc23)CC1 | -2.8 | -0.08
Cc1ccc(C)c(N2CCN(c3cc(C)nc4nc(-c5ccco5)nn34)CC2)c1 | · | 0.91
COc1ccc(/C(O)=C2\C(=O)C(=O)N(CCCN(C)C)C2c2ccc(Br)cc2)cc1 (configuration not stated) | -0.98 | 0.49
Cc1c(NC(=O)Oc2ccccc2)sc(=S)n1C | -1.4 | 0.24
CN(C)CCNC(=O)Cn1ccc2cc(S(=O)(=O)N3CCCCC3)ccc21 | · | 0.35
CCC(=O)OCCC(=O)N1C=Cc2ccccc2C1C#N (configuration not stated) | -2 | ·
c1ccc(-c2nnc(SCc3cn4cccnc4n3)o2)cc1 | · | 0.99

Reprinted from the part before: 2 compounds; new compounds follow.
Compound | CDC25B CDK2 inh | HIV TAR-Tat
CCC(=O)OCCC(=O)N1C=Cc2ccccc2C1C#N (configuration not stated) | -2 | ·
c1ccc(-c2nnc(SCc3cn4cccnc4n3)o2)cc1 | · | 0.99
O=C(CCC#CBr)OCCOc1ccccc1 | 1.9 | ·
O=C(Nc1ccccc1)C1Sc2nnc(-c3ccccc3)n2NC1c1ccc(F)cc1 (configuration not stated) | -0.03 | 2.5
CSc1cccc(NC(=O)c2ncoc2-c2cccs2)c1 | · | 1.3
CCOC(=O)c1cc(-c2ccc(S(=O)(=O)Nc3cc(OC)ccc3OC)s2)on1 | · | -4.5
COc1ccc(/C=C(/C(=O)c2ccccc2OCc2ccccc2)[N+](=O)[O-])cc1 | -2.5 | ·
Cc1nn(-c2ccc(N3CCOCC3)nn2)c(C)c1CCC(=O)NCCc1ccco1 | · | 0.09
O=C1CSC(c2cn(-c3ccccc3)nc2-c2cc3ccccc3oc2=O)N1Cc1ccco1 (configuration not stated) | -2.5 | ·
Cc1nc2c(cnn2-c2ccccc2)c(=O)n1/N=C/c1ccc(Cl)cc1 | -1 | ·
CC(C)c1ccc(Nc2nc3ccccc3n3cnnc23)cc1 | -0.51 | 1.6
O=C(Nc1cc(F)c2nc(N3CCCC3)ccc2c1)C1CCCCC1 | · | -0.29
OC[C@H]1O[C@@H](n2cnc3c(NC4CCCCC4)ncnc32)[C@H](O)[C@@H]1O | -0.31 | ·
CCOc1ccc(NC(=O)Nc2sc3nc4n(c(=O)c3c2C)CCC(C)CC4)cc1 (configuration not stated) | 9.8 | 0.4
CCCSCCCNC(=O)Cn1ncn2nc(-c3cccs3)cc2c1=O | -1.1 | 0.52
COc1ccc(Cn2cc(S(=O)(=O)c3ccc(Cl)cc3)c(=O)c3cc4c(cc32)OCO4)cc1 | -1.4 | -1.1
O=C(c1cc2c(s1)-c1ccccc1OC2)N1CCN(c2ccc(Cl)cc2)CC1 | 0.77 | 1.6
Cc1ccc(S(=O)(=O)c2nc(S(C)(=O)=O)sc2NCC(C)C)cc1 | -1.4 | 1.2
Cc1ccc(-c2cn3cccnc3n2)cc1NC(=O)Cc1cccs1 | -0.95 | ·
O=C(O)c1sccc1Cl | -1.2 | ·
Cc1oc2c(cc(O)c3ccccc32)c1C(=O)O | 8.6* | -5.5
CCCCC(=O)Nc1nc2nccc(C)n2n1 | -0.84 | 0.05
O=S(=O)(c1ccc2nc(NCC3CCN(Cc4ccc(Cl)cc4)CC3)ccc2c1)N1CCCC1 | · | 2.6
O=C1Cc2cc(S(=O)(=O)NCCc3ccccc3)cc3c2N1CCC3 | · | 1
COc1ccc(Cl)cc1NC(=O)COCc1cc(-c2ccco2)on1 | · | -2.5
O=C(CSc1nc2ccccc2o1)Nc1ccccc1F | 0.46 | ·
CCN1C(=O)Cc2cc(NS(=O)(=O)c3ccc(Cl)cc3)ccc21 | · | -0.64
CC1CC(C)CN(C(=O)Cn2ncn3cccc3c2=O)C1 (configuration not stated) | -0.93 | 3
O=C1CCSc2ccc(S(=O)(=O)N3CCc4ccccc43)cc2N1 | · | 0.45
COc1ccc(OC)c(C2CC(c3ccc(OC)c(OC)c3)=NN2S(=O)(=O)c2ccccc2)c1 (configuration not stated) | -2.8 | 0.02
COc1ccc(Nc2cc(C)nc3ccc(OC)cc23)cc1 | -0.18 | 2.1
C=CCc1c(C)nc(SC)nc1Nc1ccc(C(=O)OCC)cc1 | 0.11 | -0.4
CSc1cccc(NS(=O)(=O)c2ccc3c(c2)NC(=O)CO3)c1 | · | 3.2
CC(C)CCNC(=O)Cn1cc2c(n1)CCCC2 | -1.6 | ·
CCOc1ccc(NC(=O)NC2CCN(c3cc(C)nc4ncnn34)CC2)cc1 | -1.4 | 1.1
CC(=O)N1CCN(CCn2c(C)c3c(=O)n(-c4nc5ccccc5s4)[nH]c3cc2=O)CC1 | -0.61 | 0.25
CCOCCCNc1ncnc2scc(-c3ccc(F)cc3)c12 | · | -0.68
CCCC(=O)N(c1cc2sc(=O)oc2c2ccccc12)S(=O)(=O)c1cccs1 | 5.1 | 1.5
O=S(=O)(c1ccc(-c2noc(COc3ccc(F)cc3)n2)cc1)N1CCCC1 | · | 3.2
O=C1C2=C3C=CC(S(=O)(=O)O)=CC3CC=C2S/C1=C1\Sc2ccc3cc(S(=O)(=O)O)ccc3c2C1=O (configuration not stated) | -0.95 | ·
O=C(CC(SCc1ccco1)c1ccc(Cl)cc1)c1ccco1 (configuration not stated) | -0.28 | -0.66
COc1ccccc1NC(=O)Nc1c(C)n(C)n(-c2ccccc2)c1=O | -2.4 | ·
CCn1c(SCc2cc(=O)c3c(C)cc(C)cc3[nH]2)nnc1-c1cccs1 | · | 0.23
CC1(C)CCc2cc(C3SCCS3)ccc2O1 | -2.7 | ·
O=C(CSc1ncnc2c1nnn2-c1ccc(F)cc1)NCC1CCCO1 (configuration not stated) | -2.3 | ·
CCCCNC(=O)c1cc(Cc2c(C)n[nH]c2C)c(N2CCOCC2)s1 | 1.7 | 0.99
CCOC(=O)C(C)Oc1ccc2c(=O)c(Oc3cc(C)cc(C)c3)coc2c1 (configuration not stated) | -3.5 | 1.6
CSc1cccc(NC(=O)C2Nc3ccccc3S(=O)(=O)N2)c1 (configuration not stated) | · | 0.22
CC1CCN(C(=O)CCS(=O)(=O)c2ccc3c(c2)CC(=O)N3C)CC1 | · | 0.95
COc1ccc(C2C(C(=O)Nc3ccc(C)c(F)c3)CCC(=O)N2c2ccc(OC)cc2)cc1 (configuration not stated) | -0.57 | ·
CN(C)c1ccc(/C=C(\C#N)S(C)(=O)=O)c(F)c1C#N | 0.15 | ·
CSc1nc2n(n1)C(c1cccs1)C1=C(CCCC1=O)N2 (configuration not stated) | -0.48 | ·
N/C(=N\O)c1nonc1NCn1nnc2ccccc21 | 0.58 | ·
O=C(NCCc1ccccn1)c1nc2ccccc2c(=O)[nH]1 | -1.2 | ·
Cc1cc2ncc(-c3cnc(SCCS(=O)(=O)c4ccc(Cl)cc4)nc3)c(C)n2n1 | -1.6 | ·
O=C(O)c1cc(-c2cccc(Br)c2)nc2n[nH]c(-c3ccc(F)cc3)c12 | · | 2.3
CCOc1cc(C2Nc3ccccc3NC3=C2C(=O)CC(c2ccccc2)C3)cc(Cl)c1O (configuration not stated) | -2.8 | -4
